Vaccinia inh: blocks a specific stage of Vaccinia orthopoxvirus infection, primary screen, cell-based, single point; Vaccinia-infected cells, mCherry/Venus stage reporter fluorescence; active compounds read low; some inactives read as strong as hits; activity change (mCherry), % (no concentration beside the values); hit rate 0.01% among 89,000; AID 1053133, 2014;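 active means mCherry past -33% and 40 or more points under the early reporter, replicates agreeing; inconclusive means past -33% without that gap or agreement; tested in A549 cells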;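 further: scaled between vehicle wells and reference inhibitor wells; 23 nL library stock went into each well; one replicate is shown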
Vaccinia inh Venus: recorded beside Vaccinia inh, whose call it bears; activity change (Venus), %; measured here: Venus reporter, other viral stage;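 negative = less Venus signal; first of two replicates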
The depositor's hits bear a star; ? = inconclusive; . = no result given.

Compound | Vaccinia inh Venus | Vaccinia inh
CCCNC(=O)C[C@H]1C[C@@H]2c3cc(NC(=O)NC4CCCC4)ccc3O[C@@H]2[C@H](CO)O1 | 0.9 | 7.1
C[C@@H]1CN([C@H](C)CO)C(=O)c2cc(NS(C)(=O)=O)ccc2O[C@@H](C)CCCCO[C@H]1CN(C)S(=O)(=O)c1cn(C)cn1 | 2.1 | 11.0
COc1ccc(NC(=O)Nc2cccc3c2O[C@H](CN(C)C(=O)Nc2c(C)noc2C)[C@@H](C)CN([C@H](C)CO)C3=O)cc1 | 3.0 | 12.0
C[C@H](CO)N1C[C@H](C)[C@H](CN(C)Cc2ccc(F)cc2)Oc2cc(C#CC3CC3)ccc2S1(=O)=O | 1.1 | 9.5
O=C(c1cccnc1)N1CC(=O)N2[C@@H](CO)[C@H](c3ccc(/C=C/c4ccccc4)cc3)[C@@H]2C1 | 5.5 | 8.7
CN(C)CC(=O)N1[C@@H]2c3ccc(-c4ccccc4)c(=O)n3C[C@H]1[C@H](CO)[C@H]2C(=O)N1CCCCC1 | 8.4 | 5.2
C[C@@H]1CN([C@H](C)CO)C(=O)c2cc(NC(=O)Nc3ccc(C(F)(F)F)cc3)ccc2O[C@H]1CN(C)C | -5.7 | -8.9
CO[C@@H]1CN(C)C(=O)c2cc(NC(=O)Nc3cc(F)ccc3F)ccc2OC[C@@H](C)NC[C@H]1C | -3.1 | -28.3
COc1ccccc1C#Cc1cnc2c(c1)C(=O)N([C@@H](C)CO)C[C@@H](C)[C@@H](CN(C)C(C)=O)O2 | 7.9 | 5.1
CC(C)C(=O)Nc1ccc2c(c1)C(=O)N(C)[C@H]1CC[C@@H](CC(=O)NCc3ccccc3)O[C@H]1CO2 | 1.1 | -5.4
C[C@@H]1CCCCO[C@H](CN(C)C(=O)C2CCCCC2)[C@H](C)CN([C@@H](C)CO)C(=O)c2cc(NC(=O)CCC(F)(F)F)ccc2O1 | -4.6 | -11.8
COCC(=O)Nc1ccc2c(c1)C(=O)N(C)[C@@H]1CC[C@H](CC(=O)Nc3ccccc3)O[C@@H]1CO2 | 14.5 | 16.4
C[C@H]1C=C(C(=O)N2CCN(Cc3ccccc3)CC2)O[C@@H](OCc2ccc(CO)cc2)C1 | 10.6 | 10.2
C[C@H](CO)N1C[C@H](C)[C@@H](CN(C)Cc2ccc(C(=O)O)cc2)Oc2cc(C#CCC3CCCC3)ccc2S1(=O)=O | -12.7 | -16.5
CCCC#Cc1cnc2c(c1)C(=O)N([C@H](C)CO)C[C@H](C)[C@@H](CN(C)C(=O)Nc1cc(F)ccc1F)O2 | 10.4 | 10.9
COc1ccccc1NC(=O)N(C)C[C@H]1Oc2ncc(C#CC(C)C)cc2C(=O)N([C@H](C)CO)C[C@@H]1C | 0.0 | 2.0
Cc1ccccc1-c1ccc([C@@H]2[C@H](CO)N3CCCCN(C(=O)Nc4cccc(F)c4)C[C@@H]23)cc1 | . | ?
C[C@@H]1CN([C@H](C)CO)S(=O)(=O)c2ccc(C#CCN(C)C)cc2O[C@H]1CN(C)C(=O)CC1CC1 | 9.4 | 13.2
CCC(=O)N(C)C[C@@H]1Oc2ncc(C#CC3(O)CCCC3)cc2C(=O)N([C@@H](C)CO)C[C@@H]1C | 3.3 | 20.3
N#C[C@H]1[C@H](c2ccc(C#Cc3ccccc3F)cc2)[C@@H](CO)N1C(=O)C1CCCC1 | -12.6 | -24.7
CC(C)NC(=O)N(C)C[C@H]1Oc2ccc(NC(=O)c3ccncc3)cc2C(=O)N([C@@H](C)CO)C[C@H]1C | 13.2 | 3.5
Cc1ccccc1-c1cnc2c(c1)C(=O)N([C@H](C)CO)C[C@@H](C)[C@H](CN(C)Cc1cccnc1)O2 | -16.1 | -17.7
O=C(CN1CCOCC1)N[C@@H]1CC[C@H](CCn2cc(C3CC3)nn2)O[C@H]1CO | -3.2 | -7.6
O=C(Nc1ccccc1)N1CC(=O)N2[C@@H](CO)[C@H](c3ccc(C#CC4CC4)cc3)[C@@H]2C1 | 0.1 | 2.5
CCCN(C)C[C@H]1OCCCC[C@@H](C)Oc2ccc(NS(=O)(=O)c3ccc(C)cc3)cc2C(=O)N([C@@H](C)CO)C[C@H]1C | . | ?
Cc1noc(C)c1S(=O)(=O)Nc1ccc2c(c1)CC(=O)N([C@H](C)CO)C[C@@H](C)[C@@H](CN(C)C(=O)NC1CCCCC1)O2 | -3.4 | 1.6
C[C@@H]1CCCCO[C@@H](CN(C)Cc2ccc(C(F)(F)F)cc2)[C@H](C)CN([C@H](C)CO)C(=O)c2cc(NS(=O)(=O)c3ccc(Cl)cc3)ccc2O1 | . | ?
C[C@@H]1CN([C@@H](C)CO)S(=O)(=O)c2ccc(C#CCC3CCCC3)cc2O[C@H]1CN(C)C(=O)CN(C)C | . | ?
CO[C@@H]1CN(C)C(=O)c2cc(NS(=O)(=O)c3ccccc3C)ccc2OC[C@@H](C)NC[C@@H]1C | 2.6 | 2.8
CO[C@@H]1CN(C)C(=O)c2cc(NC(=O)C3CCOCC3)ccc2OC[C@@H](C)N(Cc2ccc(F)cc2)C[C@H]1C | -11.7 | -12.6
CNC[C@@H]1OCCCC[C@@H](C)Oc2ccc(NC(=O)CCC(F)(F)F)cc2C(=O)N([C@@H](C)CO)C[C@H]1C | 5.5 | -2.5
C[C@@H]1CN([C@@H](C)CO)C(=O)c2cc(NC(=O)c3ccccc3)ccc2O[C@@H](C)CCCCO[C@H]1CN(C)C(=O)Nc1cccc2ccccc12 | . | ?
C[C@@H]1CN([C@H](C)CO)C(=O)c2cccc(NC(=O)C3CC3)c2O[C@@H]1CN(C)C(=O)NC1CCCCC1 | 15.9 | 14.5
COc1ccc(CN(C)C[C@@H]2OCCCC[C@H](C)Oc3ccc(NC(=O)NC(C)C)cc3C(=O)N([C@H](C)CO)C[C@H]2C)cc1 | 7.5 | 8.4
COc1ccc(S(=O)(=O)N[C@@H]2CC[C@H](CCn3cc(-c4ccccc4F)nn3)O[C@@H]2CO)cc1 | -9.1 | -10.5
CO[C@H]1CN(C)C(=O)c2ccc(NC(=O)Nc3ccc(Cl)c(Cl)c3)cc2OC[C@H](C)NC[C@H]1C | . | ?
COC(=O)C[C@H]1C[C@@H]2c3cc(NC(=O)NC4CCCC4)ccc3O[C@@H]2[C@H](CO)O1 | 9.5 | 7.5
C[C@@H]1CCCCO[C@@H](CN(C)CC2CCCCC2)[C@H](C)CN([C@@H](C)CO)C(=O)c2cc(NC(=O)Nc3cccc4ccccc34)ccc2O1 | -16.9 | -26.5
CC(C)NC(=O)Nc1ccc2c(c1)C(=O)N([C@H](C)CO)C[C@@H](C)[C@@H](CN(C)C(=O)NC(C)C)OCCCC[C@@H](C)O2 | 6.7 | 12.5
Cc1noc(C)c1NC(=O)N[C@H]1C=C[C@@H](CC(=O)Nc2ccc(-c3ccccc3)cc2)O[C@@H]1CO | 1.3 | 7.7
CCC(=O)Nc1ccc2c(c1)C(=O)N(C)C[C@H](OC)[C@H](C)CN(C(=O)CC)[C@@H](C)CO2 | 5.8 | 7.3
CC(=O)N1CC(=O)N2[C@H](CO)[C@H](c3ccc(C#CC(C)C)cc3)[C@@H]2C1 | 19.1 | 10.9
CN1C(=O)c2cc(NS(=O)(=O)c3ccc(Cl)cc3)ccc2OC[C@H]2O[C@H](CC(=O)O)CC[C@H]21 | 17.1 | 14.6
C[C@@H]1CN([C@@H](C)CO)S(=O)(=O)c2ccc(-c3cccnc3)cc2O[C@@H]1CN(C)C(=O)c1cccc(F)c1 | 4.0 | 8.5
O=C(NCc1ccccn1)[C@@H]1[C@@H](CO)[C@@H]2Cn3c(cccc3=O)[C@H]1N2CC1CCCCC1 | -4.3 | -2.0
CC(C)CC#Cc1ccc([C@@H]2[C@@H](CO)N3C(=O)CN(C(=O)NC4CCCC4)C[C@@H]23)cc1 | -1.4 | -0.1
CNC[C@H]1Oc2ccc(NC(=O)Cc3ccccc3)cc2C(=O)N([C@H](C)CO)C[C@H]1C | -6.2 | -6.4
C[C@@H]1CN([C@H](C)CO)S(=O)(=O)c2ccc(C#C[C@@H](C)O)cc2O[C@@H]1CN(C)CC1CCOCC1 | 2.0 | 11.9
C[C@H]1CN([C@@H](C)CO)C(=O)CCCn2cc(nn2)CO[C@H]1CN(C)S(=O)(=O)c1ccc(Oc2ccccc2)cc1 | -10.6 | -13.9
CCNC(=O)Nc1ccc2c(c1)C(=O)N(C)[C@H]1CC[C@@H](CC(=O)NCc3ccccc3F)O[C@H]1CO2 | 3.9 | 0.2
O=C(Cc1ccncc1)N1CCCCN2[C@H](CO)[C@@H](c3ccc(C#CC4(O)CCCC4)cc3)[C@H]2C1 | 9.4 | 24.3
C[C@@H]1CN([C@H](C)CO)C(=O)c2cc(Br)cnc2O[C@H]1CN(C)C(=O)Nc1ccccc1 | -3.6 | 6.7
O=C(Nc1ccc2c(c1)[C@H]1C[C@H](CC(=O)N3CCc4ccccc4C3)O[C@H](CO)[C@H]1O2)c1ccc2c(c1)OCO2 | -9.1 | -15.0
COc1ccc2c3c(n(C)c2c1)[C@H](CO)N(C(=O)c1cccnc1)CC31CCN(C)CC1 | -6.4 | 2.9
Cc1noc(C)c1NC(=O)Nc1ccc2c(c1)C(=O)N([C@H](C)CO)C[C@@H](C)[C@H](CN(C)S(=O)(=O)c1cccs1)OCCCC[C@@H](C)O2 | 2.9 | 6.1
COc1ccc(-c2ccc([C@@H]3[C@@H](CO)N4CCCCN(C(=O)NC(C)C)C[C@H]34)cc2)cc1 | -11.8 | -20.6
COc1ccc(CN(C)C[C@H]2OCCCC[C@H](C)Oc3ccc(NC(=O)CCCN(C)C)cc3C(=O)N([C@H](C)CO)C[C@H]2C)cc1 | -0.9 | 5.5
CC(C)NC(=O)Nc1ccc2c(c1)C(=O)N([C@H](C)CO)C[C@H](C)[C@H](CN(C)C(=O)Nc1ccc(C(F)(F)F)cc1)OCCCC[C@H](C)O2 | -14.6 | -11.6
O=C(Cc1ccncc1)Nc1ccc2c(c1)[C@H]1C[C@@H](CC(=O)NC3CCCC3)O[C@@H](CO)[C@H]1O2 | 7.6 | 8.6
C[C@H]1CN([C@@H](C)CO)C(=O)Cc2cc(NC(=O)NC3CCCCC3)ccc2O[C@H]1CN(C)Cc1ccc(Oc2ccccc2)cc1 | . | ?

(more compounds)
Compound | Vaccinia inh Venus | Vaccinia inh
CCNC(=O)C[C@H]1CC[C@H]2[C@@H](COC[C@@H](O)CN2Cc2ccncc2)O1 | 19.0 | 3.8
CCOC(=O)c1cc2c(c(-c3cccc(C#CCN(C)C)c3)n1)[C@@H](CCO)N(S(=O)C(C)(C)C)C2 (stereo partly drawn) | 10.9 | -0.4
O=C(N[C@H]1CC[C@@H](CCNC(=O)C2CCCC2)O[C@@H]1CO)c1ccncc1 | 1.2 | 6.0
Cc1ccccc1S(=O)(=O)N1C[C@@H](O)COC[C@H]2O[C@H](CC(=O)N3CCOCC3)CC[C@@H]21 | 3.9 | 3.3
C[C@H]1CN([C@@H](C)CO)C(=O)Cc2cc(NC(=O)C3CC3)ccc2O[C@@H]1CN(C)C(=O)Nc1ccccc1 | -1.2 | 9.4
Cc1noc(C)c1S(=O)(=O)Nc1ccc2c(c1)CC(=O)N([C@H](C)CO)C[C@@H](C)[C@H](CN(C)S(=O)(=O)c1ccccc1)O2 | 8.1 | 10.3
CO[C@@H]1CN(C)C(=O)c2cc(NS(=O)(=O)c3ccccc3C)ccc2OC[C@@H](C)NC[C@H]1C | -1.1 | 2.0
C[C@H](CO)N1C[C@H](C)[C@@H](CN(C)C(=O)Nc2ccc3c(c2)OCO3)Oc2ccc(NC(=O)Nc3ccc(F)cc3)cc2C1=O | 11.7 | 8.5
O=C(c1cccc(F)c1)N1CCCCN2[C@@H](CO)[C@H](c3ccc(-c4ccc(F)cc4)cc3)[C@@H]2C1 | . | ?
CCCC#Cc1cnc2c(c1)C(=O)N([C@H](C)CO)C[C@@H](C)[C@@H](CN(C)Cc1ccc(C(=O)O)cc1)O2 | 1.5 | 14.1
C[C@H](CO)N1C[C@H](C)[C@H](CN(C)C(=O)c2cccnc2)Oc2ncc(C#CCN(C)C)cc2C1=O | 10.1 | 30.9
C[C@@H]1CN([C@@H](C)CO)C(=O)c2cccc(NS(C)(=O)=O)c2O[C@@H]1CN(C)C(=O)Nc1ccc2c(c1)OCO2 | 19.2 | 16.8
O=C(Nc1ccc(F)cc1)N[C@@H]1CC[C@H](CCNC(=O)c2cc(Cl)cc(Cl)c2)O[C@@H]1CO | -7.2 | -8.9
COc1ccc(CN(C)C[C@H]2OCCCC[C@@H](C)Oc3ccc(NS(=O)(=O)c4ccc(OC)cc4)cc3C(=O)N([C@H](C)CO)C[C@H]2C)cc1 | 1.1 | -8.9
C[C@H]1CN([C@@H](C)CO)C(=O)c2cccc(NS(=O)(=O)c3ccc(Cl)cc3)c2O[C@@H]1CN(C)Cc1ccc(C(F)(F)F)cc1 | -18.9 | -19.2

Compounds from the list above that contain a COOH group, in the order listed:
Compound | Vaccinia inh Venus | Vaccinia inh
C[C@H](CO)N1C[C@H](C)[C@@H](CN(C)Cc2ccc(C(=O)O)cc2)Oc2cc(C#CCC3CCCC3)ccc2S1(=O)=O | -12.7 | -16.5
CN1C(=O)c2cc(NS(=O)(=O)c3ccc(Cl)cc3)ccc2OC[C@H]2O[C@H](CC(=O)O)CC[C@H]21 | 17.1 | 14.6
CCCC#Cc1cnc2c(c1)C(=O)N([C@H](C)CO)C[C@@H](C)[C@@H](CN(C)Cc1ccc(C(=O)O)cc1)O2 | 1.5 | 14.1

2 compounds picked at random from those above:
Compound | Vaccinia inh Venus | Vaccinia inh
O=C(c1cccc(F)c1)N1CCCCN2[C@@H](CO)[C@H](c3ccc(-c4ccc(F)cc4)cc3)[C@@H]2C1 | . | ?
C[C@H]1CN([C@@H](C)CO)C(=O)c2cccc(NS(=O)(=O)c3ccc(Cl)cc3)c2O[C@@H]1CN(C)Cc1ccc(C(F)(F)F)cc1 | -18.9 | -19.2

Bioassay records: PubChem BioAssay, Broad Institute

Not all compounds are listed. The share of hits here may be higher or lower than overall.
